Six1-Eya2 blk – Six1/Eya2 interaction inhibition; Q15475+O00167; AlphaScreen GST-Six1/His-Eya2 binding, biochemical; active compounds read low; control for the full effect not named in the record; activity change, % (concentration not given with the values); 360,000 tested, 0.56% active; AID 651725; in the data active = activity change below about -65%; inconclusive = about -30% to -65%; inactive = above about -30%; note: % is set by controls: 0 for no effect and ±100 for the full control effect
Target sequence (O00167 whole entry, looked up): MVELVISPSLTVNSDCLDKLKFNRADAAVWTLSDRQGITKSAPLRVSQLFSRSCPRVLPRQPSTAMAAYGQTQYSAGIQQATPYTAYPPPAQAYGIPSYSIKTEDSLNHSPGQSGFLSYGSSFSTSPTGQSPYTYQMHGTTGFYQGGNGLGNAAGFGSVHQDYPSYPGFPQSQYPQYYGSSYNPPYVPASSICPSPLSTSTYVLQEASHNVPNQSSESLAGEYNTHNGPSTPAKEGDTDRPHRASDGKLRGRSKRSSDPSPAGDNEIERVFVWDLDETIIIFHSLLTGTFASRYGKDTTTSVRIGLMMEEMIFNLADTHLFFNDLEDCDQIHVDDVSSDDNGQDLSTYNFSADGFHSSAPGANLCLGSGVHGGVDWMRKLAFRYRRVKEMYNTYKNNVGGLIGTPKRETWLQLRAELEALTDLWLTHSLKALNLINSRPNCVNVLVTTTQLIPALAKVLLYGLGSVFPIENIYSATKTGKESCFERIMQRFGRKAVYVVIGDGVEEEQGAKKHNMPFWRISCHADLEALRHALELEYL
Target sequence (Q15475 whole entry, looked up): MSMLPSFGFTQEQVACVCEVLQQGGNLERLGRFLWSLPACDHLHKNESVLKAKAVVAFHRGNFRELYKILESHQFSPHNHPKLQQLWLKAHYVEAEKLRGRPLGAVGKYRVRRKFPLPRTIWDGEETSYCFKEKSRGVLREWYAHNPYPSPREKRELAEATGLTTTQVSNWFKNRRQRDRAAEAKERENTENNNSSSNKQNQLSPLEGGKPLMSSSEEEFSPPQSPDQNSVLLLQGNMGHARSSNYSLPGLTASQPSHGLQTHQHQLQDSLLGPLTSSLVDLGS
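AlphaScreen luminescence read after one hour at 37 °C in darkness. Pin-transferred compounds met GST-Six1 and His-Eya2 protein (5X stock 250 nM/500 nM) plus glutathione donor and Ni-chelate acceptor beads (5X, 50 ug/mL).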
D2 ag – human D2 receptor agonism in beta-arrestin assay. AID 624465. P14416. activation, % (concentration not given with the values). 360,000 tested, 0.084% active. DiscoveRx PathHunter D2 beta-arrestin, luminescence, 90 min; 100% = 57 uM dopamine signal; in the data active = activation above about 40%; inconclusive = about 15% to 40%; inactive = below about 15%; note: compound concentration not given in the record; the text of the record calls up to 30% inactive
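DiscoveRx PathHunter D2 beta-arrestin cells (2,100/well) attached overnight, then compound-stimulated 90 min at 37 C in HBSS/10 mM HEPES/0.1% Tween-20 buffer; beta-galactosidase complementation read by luminescence after 1 h at ambient temperature. Dopamine 57 uM final (EC100) as control.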
CtBP-E1A blk – blocks the CtBP interaction with E1A. AlphaScreen GST-E1A/His-CtBP binding, 1536-well; active compounds read low; control for the full effect not named in the record. 340,000 tested, 0.49% active. activity change, % (concentration not given with the values); in the data active means activity change below about -65%; inconclusive means about -30% to -65%; inactive means above about -30%; note: % is set by controls: 0 for no effect and ±100 for the full control effect
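Steps: dispense buffer (Tris pH 8.0, NaCl 300 mM, TCEP 1 mM, BSA, Tween 20); add 5X protein mix (GST-E1A, His-CtBP, 125 nM each); pin 23 nL compound; 2 h at 37 °C, dark; add 5X beads (50 ug/mL); 1 h; read.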
TRPML1 ag – human mucolipin-1 channel agonism; Q9GZU1; activation, % (test concentration not listed); 410,000 tested, 0.12% active; TRPML1-expressing cells, Ca2+ dye fluorescence, FDSS; host cell line not named in the record; reference of the full effect not given here; in the data active = activation above about 50%; inconclusive = about 30% to 50%; inactive = below about 30%; note: 0% is about no effect; the text of the record puts the active cut at 80%
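Cells: TRPML1-DL, 1X Tet inducer, ~16 h at 37 degrees C/5% CO2. Dye: ABD Ca8 no-wash + quencher, 45-90 min RT. Read: 10 s baseline, compound add, 110 s agonist phase; 54-4 EC80 (4uM final), 110 s antagonist phase.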
PINK1 expr mod – modulators of PINK1 expression; AID 624263; PINK1 immunofluorescence, high-content cytometry, 24 h; 410,000 tested, 0.2% active; Potency, µM (top dose mostly 76.6 µM), for inactives: top-dose activation (PINK1 increase), most hits filed as activators; active = well fitted activation curve with a large enough effect; inconclusive = small, poorly fitted or top-dose-only effect; inactive = flat fitted curve, though single readings scatter; cell line not stated here;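 note: potency is the fitted concentration of half-maximal effect; % of control where 0% means no effect; nearly all actives have a fitted effect of over 65% in size; a mitochondrial uncoupler was the plate control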
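Fluorescence from anti-PINK1 antibody, together with nuclear and cell stains, was scanned on a laser-scanning cytometer. Before staining, stable-line cells were incubated 24 hours with compounds at 5 concentrations; primary antibody 12 h at 10 degrees C.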
TRPML1 blocker – blocks the human TRPML1 channel; TRPML1-inducible cells, Ca2+ dye fluorescence, FDSS; active compounds read low; inhibition of EC80 agonist-evoked calcium signal; activity change, negative = inhibition, % (concentration not given with the values); 390,000 tested, 0.02% active; AID 624415; in the data active means activity change below about -50%; inconclusive means about -30% to -50%; inactive means above about -30%;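 note: stimulus is agonist 54-4 at its EC80 concentration; % is set by controls: 0 for no effect and ±100 for the full control effect; the text of the record puts the active cut at -80%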
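Calcium fluorescence in TRPML1-DL cells induced overnight with Tet: a 110 s read after compound pin addition, then a 110 s antagonist read after challenge with 54-4 at 4 uM final (EC80).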
Starred values were filed as active, the others as inactive; ? = inconclusive; · = no result given; [ ] = remark or other dose.

SMILES	Six1-Eya2 blk	D2 ag	CtBP-E1A blk	TRPML1 ag	PINK1 expr mod	TRPML1 blocker
CSCCC(NS(=O)(=O)c1ccccc1F)C(=O)NNC(=O)c1csc(N2CCOCC2)n1 (configuration not stated)	3	-1.3	2	-0.3	-2.3%	5
COc1cc2c(cc1OC)-c1cc(OCCN3CCOCC3)nc(=O)n1CC2	-14	-2.3	12	0.6	-1.7%	40
Cc1c(C(=O)N2CCCC2)sc(NC(=O)c2cccc(Cl)c2)c1C#N	?	-0.2	1	2.7	?	30
Cc1ccc(CN2CCS(=O)(=O)CC2)cc1	4	-1.2	1	-0.4	-0.5%	-8
CCCn1nnnc1SCC(=O)N1CCOCC1	4	-1.4	0	-0.3	1.9%	-12
CCc1ccccc1NC(=O)CCCN1C(=O)CCn2nc(-c3cn(C)c4ccccc34)cc21	·	·	·	0.4	0.7%	-1
CCOC(=O)N1CCN(S(=O)(=O)c2ccc3[nH]cc(C(=O)O)c(=O)c3c2)CC1	-1	0.3	1	0.0	6.3%	20
COCCN1CCn2c(nc3cc(NC(=O)c4cccs4)ccc32)C1	-20	-1.5	0	0.7	-0.4%[38.3 µM]	-12
CC(C)NC1CCC(Nc2ccnc3cc(Cl)ccc23)CC1 (configuration not stated)	-1	7.1	-4	1.9	16%	-14
Cc1cc(C)n2nc(CNC(=O)c3c(F)cccc3F)nc2n1	·	·	·	-0.5	-0.6%	15
CSc1nnc(-c2ccccc2N=Cc2c(C)[nH]n(-c3ccc4ccccc4c3)c2=O)c(=O)[nH]1	?	-15	-26	1.7	1.1%	-3
O=C(CSC(=S)N1CCSCC1)c1ccc(Cl)cc1	0	-2.0	1	2.0	-0.5%	-10
C/C(=C\C(=O)c1ccc(C)cc1)NCc1ccc(F)cc1	4	0.1	4	-0.2	1.1%	-5
CCC(CO)Oc1cc(NCc2ccc(O)cc2)c2ncn(C(C)C)c2c1 (configuration not stated)	-8	0.9	-6	-0.4	3.0%	9
Cc1ccc(CN(C(=O)c2ccccc2Br)C2CCS(=O)(=O)C2)o1 (configuration not stated)	·	·	·	-0.2	-0.8%	37
Cn1c(=O)c2c(nc(NN=C3CCCC3)n2C)n(C)c1=O	-3	3.7	·	0.1	1.1%	-25
Cc1ccc(N2CCN(C(=O)c3ccccc3)CC2)c(C)c1	3	1.8	0	2.0	-0.4%[38.3 µM]	24
CNc1ccc(-c2cccc(C(=O)N3CCOCC3)c2)cn1	-2	-4.8	-3	0.3	0.6%	5
CCOC(=O)c1cc(NC(=O)c2ccccc2)c(=O)oc1C(F)(F)F	-1	-0.5	-11	-0.1	0.0%	2
O=C(c1ccc2c(=O)n3c(nc2c1)CCCCC3)N1CCN(c2ccccc2)CC1	-9	-2.6	-3	1.1	1.1%	7
O=C(Nc1ncccc1O)c1ccc(S(=O)(=O)Nc2ccccc2)cc1	5	4.0	-8	0.1	15%	13
CCCSCCCNC(=O)Cn1c(-c2cccs2)cc2ccccc21	·	·	·	3.1	-1.4%	19
COc1cc(C(=O)N2CCN(S(=O)(=O)c3ccc(F)cc3)CC2)cc(OC)c1OC	0	-0.9	6	-0.9	-14%[38.3 µM]	4
O=C(/C=C\NCC(=O)c1ccccc1)c1ccc(F)cc1	-2	-2.4	0	0.4	?	5
Brc1ccc(OCc2nc3ccccc3[nH]2)cc1	17	4.6	·	0.6	1.2%	-16
The list continues.
SMILES	Six1-Eya2 blk	D2 ag	CtBP-E1A blk	TRPML1 ag	PINK1 expr mod	TRPML1 blocker
CC1C(=O)N2CCCc3cc(S(=O)(=O)N4CCN(c5cccc(Cl)c5)CC4)cc1c32 (configuration not stated)	-4	-1.2	-1	-0.5	21%	-23
CC(O)C(O)C(O)C(O)C1NCCS1 (configuration not stated)	-29	-1.8	-20	-0.4	1.0%	-9
Cc1cc(C)cc(C(=O)N(CCc2ccccc2)C2CC3CCC(C2)N3C)c1 (configuration not stated)	4	-0.5	-11	1.3	3.2%	-6
Cc1ccc(C(=O)n2nc(C)c(S(=O)(=O)N3CCOCC3)c2C)cc1C	·	·	·	1.2	1.5%	-11
COC(=O)c1c(C)[nH]c(C(=O)COc2ccc3ccc(=O)oc3c2)c1C	-1	-1.0	0	0.3	4.6%	2
Cc1ccc(-c2cc(C(=O)N3CCCCC3)c3ccccc3n2)cc1C	-5	-3.0	-11	-0.8	11%	-16
C=CCn1ccc(O)c(Cc2ccc(Cl)cc2)c1=O	-2	4.6	-11	0.8	-0.8%	9
OC(CN1CCOCC1)Cn1c(-c2cccc(Cl)c2)nc2ccccc21 (configuration not stated)	6	-3.2	4	-0.5	-15%[38.3 µM]	7
COc1ccc(C(=O)CC2(O)C(=O)Nc3c(C)cccc32)c(OC)c1OC (configuration not stated)	·	·	·	0.5	0.3%	1
Cc1ccc(C(=O)N2CCN(C(=O)N3CCOCC3)CC2)cc1	2	-3.2	3	0.3	-0.6%	2
Cn1nc(-c2ccccc2)c(C(=O)NCC(=O)O)c1Cl	5	-0.7	3	-0.1	-0.7%	0
COCCn1c(SCC(=O)c2c(N)n(C)c(=O)n(C)c2=O)nc2ccccc21	0	-1.6	-3	-0.5	3.4%	-6
CCOC(=O)c1ccc(N2C(=O)c3n[nH]c(C)c3C2c2ccco2)cc1 (configuration not stated)	-10	-2.5	-6	-1.0	0.6%	5
O=C(c1ccc(Cl)cc1)c1cn(Cc2ccccc2)c2cc3c(cc2c1=O)OCCO3	·	·	·	0.9	-0.2%	-5
COc1cc(C)ccc1OCCCON1C(=O)CCC1=O	1	-0.1	-3	0.0	?	-16
Clc1ccc(Cl)c(OCCCCN2CCCCC2)c1	-9	-3.4	-16	0.6	1.7%	4
Nc1nc(N)c2ncc(C(=O)CCc3ccccc3)nc2n1	-7	12	0	1.9	-0.1%	3
COc1ccc(S(=O)(=O)N2CCOCC2)cc1NC(=O)COc1ccc2ccc(=O)oc2c1	-15	-1.6	-8	1.0	9.1%	-26
CC12CCC(C(=O)NCc3ccc4c(c3)OCO4)(C(=O)C1=O)C2(C)C (configuration not stated)	3	-1.2	-2	-0.4	2.2%	27
COc1ccc(-n2c(=S)[nH]c3cc(C(=O)NCCCN4CCCC4=O)ccc3c2=O)cc1OC	-3	-2.3	-1	-0.5	0.1%	2
Cc1nn2c(NCCCN(C)C)c3c(nc2c1-c1ccccc1)CCC3	-7	-5.2	-4	-0.4	-0.8%	11
c1ccc(CC2CCN(C3=Nc4cccc5cccc3c45)CC2)cc1	?	-3.6	?	4.2	?	-13
Cc1ccccc1-n1c(SCc2csc(Nc3ccccc3)n2)nnc1-c1cccnc1	-23	-2.4	-9	1.3	11%	-7
CSCCC(=O)NC1CC(C)(C)Cc2c1cnn2-c1ccccc1C (configuration not stated)	18	-4.2	3	-0.5	3.4%	52
COC(=O)c1cc(N2CCN(C)CC2)nc2ccccc12	6	-3.1	9	6.2	-0.5%	8
Remaining list, next part
SMILES	Six1-Eya2 blk	D2 ag	CtBP-E1A blk	TRPML1 ag	PINK1 expr mod	TRPML1 blocker
Cc1nn(Cc2ccc(F)cc2)c(C)c1NC(=O)C1c2ccccc2Oc2ccccc21	-20	-2.4	0	-0.3	6.3%	-8
COc1cc(C(=O)Nc2cc(C)c(O)c(-c3nc4ccccc4s3)c2)cc(OC)c1OC	·	·	·	2.2	-0.7%	-17
Cc1ccc(C)c(-n2c(N)c(C#N)c3nc4ccccc4nc32)c1	·	·	·	-0.4	2.7%	-17
Cn1c(=O)c2c([nH]c(=S)n2Cc2ccc(Cl)cc2)n(C)c1=O	-7	4.2	-9	-0.3	0.7%	-7
CCc1ccc(NC2CC(=O)N(CCc3ccc(OC)c(OC)c3)C2=O)cc1 (configuration not stated)	-16	-1.3	-3	-1.1	5.1%	-5
Cc1cc(NS(=O)(=O)c2ccccc2)n(-c2ccccc2)n1	26	0.4	22	-0.7	-2.9%	97
CCCS(=O)(=O)c1nc(S(=O)(=O)c2ccc(C)cc2)c(NCCCn2ccnc2)s1	-1	-4.9	-10	-1.0	-0.9%	17
CC(C)CCNC(=O)C(=O)Nc1cc2c3c(c1)CC(=O)N3CCC2	0	1.4	2	-1.0	2.3%	-4
CCc1nc(-c2ccc(C)c(S(=O)(=O)N3CCN(c4ccc(C(C)=O)cc4)CC3)c2)no1	·	·	·	1.1	0.9%	-21
Cc1c(Cl)ccc(S(=O)(=O)NCCCn2ccnc2)c1Cl	-6	-4.2	9	0.6	2.1%	-6
CCO[C@H]1OC(C(=O)NCc2ccccc2)=C[C@@H](c2ccc(Br)cc2)[C@@H]1CCCO	-2	1.1	1	0.9	0.3%	-8
O=C(O)CCc1ccc(S(=O)(=O)NCCc2ccccc2)cc1	2	-2.9	1	-0.4	-2.6%[38.3 µM]	1
COc1cc(CNC(=O)CCCC(=O)c2ccccc2)cc(OC)c1OC	7	-2.5	·	1.4	0.2%	-18
O=C(COC(=O)C1CCC1)Nc1ccc(Oc2ccccc2)cc1	7	0.0	4	-0.1	4.1%[38.3 µM]	-5
Cc1ccc(NC(=O)CSCC(=O)N2CCN(c3cccc(C(F)(F)F)c3)CC2)cc1	-5	-5.8	6	2.1	1.8%	-8
O=C(COc1ccccc1)N(Cc1nnc(-c2ccccc2Cl)o1)C1CC1	0	-5.3	-14	-0.5	-1.1%	-1
Cc1[nH]n(-c2ccccc2)c(=O)c1C(=O)c1ccc(Cl)cc1	-9	-4.0	-4	-0.1	1.1%	-13
COc1cc(C(=O)NCCCc2nc3ccccc3n2Cc2cc(C)ccc2C)cc(OC)c1OC	-8	3.6	6	1.4	1.7%	0
Cn1c(CNC(=O)Nc2ccccc2Cl)nnc1SCc1ccccc1	3	-3.4	-3	-0.6	-1.1%	-7
CCc1ccc(NC(=O)CN2CCN(C3CCCCC3)C(=O)C2=O)cc1	·	·	·	0.7	0.0%	14
COc1ccc(CCn2c(C)cc(C(=O)COC(=O)c3cnc(C)cn3)c2C)cc1	-10	1.2	0	2.5	4.3%	5
COc1ccc(C(=O)CN2CCN(S(=O)(=O)c3ccc(F)cc3)CC2)cc1	·	·	·	0.8	0.8%	-6
Cc1ccc(-n2c(SCC(=O)Nc3ccc4c(c3)OCO4)nnc2-c2ccoc2C)cc1	-2	1.7	-1	3.4	-1.3%	29
CC1=Nc2cc(C(=O)NC3CCCC3)ccc2Sc2ccc(Br)cc21	·	·	·	1.1	1.1%	3
CCC1CC(CSc2ncn[nH]2)OC1=O (configuration not stated)	5	-4.6	-16	0.1	1.8%	-3

Four compounds drawn at random from the list so far:
SMILES	Six1-Eya2 blk	D2 ag	CtBP-E1A blk	TRPML1 ag	PINK1 expr mod	TRPML1 blocker
COc1cc(C(=O)NCCCc2nc3ccccc3n2Cc2cc(C)ccc2C)cc(OC)c1OC	-8	3.6	6	1.4	1.7%	0
CSCCC(NS(=O)(=O)c1ccccc1F)C(=O)NNC(=O)c1csc(N2CCOCC2)n1 (configuration not stated)	3	-1.3	2	-0.3	-2.3%	5
CCCn1nnnc1SCC(=O)N1CCOCC1	4	-1.4	0	-0.3	1.9%	-12
COc1cc(C(=O)Nc2cc(C)c(O)c(-c3nc4ccccc4s3)c2)cc(OC)c1OC	·	·	·	2.2	-0.7%	-17

Screens deposited in PubChem by National Center for Advancing Translational Sciences (NCATS).
